Vif A3G – HIV-1 Vif–A3G interaction blockers – biochemical, TR-FRET, GST-Vif 1-94, biotin-A3G peptide, dose response retest, primary screen (AID 1117319); 0.57% of 260,000 active; inhibition, %, or IC50 in µM where a hit was titrated; TR-FRET GST-Vif / biotin-A3G peptide binding; higher % means a stronger effect; test concentration not given here; strong numbers were not always called active;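 active = above the screen mean plus three standard deviations and confirmed in dose response; inconclusive = results disagree or hit not tested in dose response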;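 also: Vif residues 1-94 fused to GST binding biotinylated APOBEC3G peptide 110-148; 0% = full assay without inhibitor and 100% = GST in place of GST-Vif; retest series ran down from 100 µM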
FGF22 binding – binders of recombinant human FGF22 by thermal shift | AID 651658 | Q9HCT0 | 1.5% of 340,000 active | calls only at 9.99 µM | SYPRO orange fluorescence; percent of sucrose octasulfate shift, DMSO zero;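 active = melting point raised past a set limit in the mean and every replicate; inconclusive = no clear call; three in four hits are not shown here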
Target sequence (Q9HCT0 whole entry, looked up): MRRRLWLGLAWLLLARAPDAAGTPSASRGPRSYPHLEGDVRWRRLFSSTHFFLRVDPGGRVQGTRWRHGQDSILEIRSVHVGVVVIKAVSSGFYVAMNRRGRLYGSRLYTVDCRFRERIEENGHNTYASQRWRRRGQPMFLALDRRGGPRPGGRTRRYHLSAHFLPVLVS
RanGTP-Impb inh – disruptors of Ran-importin-beta complex formation – biochemical, FRET, CFP-Ran, YFP-importin-beta, homogeneous, primary screen. cell-free CFP-Ran/YFP-importin-beta FRET ratio. inhibition, % (no concentration beside the values). 1.1% of 300,000 active;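 active = most replicates above 15%; inconclusive = exactly half above 15%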;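 also: 0% = DMSO wells and 100% = Ran loaded with GDP instead of GTP; wells of about 40 µL received 100 nL stock; the first replicate is given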
AF4-AF9 inh – blocks AF4 peptide binding to human AF9 | P42568 | AlphaScreen, biotin-AF4 peptide binding to FLAG-AF9 | inhibition, % at 10 µM | 0.47% of 350,000 active;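 active = every replicate reaching a set inhibition limit, whatever the replicate mean, cut at about 25% in these data; inconclusive = mean inhibition reaches that limit but some replicates miss it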;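 also: 0% = plate neutral control median and 100% = total signal loss; the record names both 10 and 1 µM as test concentration; the first replicate is given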
Target sequence (P42568 whole entry, looked up): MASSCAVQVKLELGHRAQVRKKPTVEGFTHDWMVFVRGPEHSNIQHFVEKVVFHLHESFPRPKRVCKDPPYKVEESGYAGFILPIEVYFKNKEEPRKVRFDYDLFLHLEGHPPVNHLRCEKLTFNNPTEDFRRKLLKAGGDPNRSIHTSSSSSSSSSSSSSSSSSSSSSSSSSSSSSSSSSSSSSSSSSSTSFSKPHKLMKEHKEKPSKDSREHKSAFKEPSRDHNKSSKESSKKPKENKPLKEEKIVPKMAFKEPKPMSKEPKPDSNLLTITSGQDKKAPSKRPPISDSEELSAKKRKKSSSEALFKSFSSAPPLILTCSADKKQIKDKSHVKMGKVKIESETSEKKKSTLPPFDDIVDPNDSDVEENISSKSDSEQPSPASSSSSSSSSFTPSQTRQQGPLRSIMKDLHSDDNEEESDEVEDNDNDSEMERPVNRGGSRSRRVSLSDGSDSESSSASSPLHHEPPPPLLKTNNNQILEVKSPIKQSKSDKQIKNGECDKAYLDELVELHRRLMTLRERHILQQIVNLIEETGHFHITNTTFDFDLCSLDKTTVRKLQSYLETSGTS
UCH37 inh – blocks the human deubiquitinase UCH37 | 0.33% of 330,000 active | Q9Y5K5 | inhibition, % (test concentration not listed) | purified proteasome/UCH37, Ub-AMC cleavage fluorescence | AID 588478;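 active = mean of two replicates above 20%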;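 also: 0% = compound-free wells with enzyme and 100% = wells lacking proteasome; stock transfer was 100 nL into about 20 µL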
Target sequence (Q9Y5K5 whole entry, looked up): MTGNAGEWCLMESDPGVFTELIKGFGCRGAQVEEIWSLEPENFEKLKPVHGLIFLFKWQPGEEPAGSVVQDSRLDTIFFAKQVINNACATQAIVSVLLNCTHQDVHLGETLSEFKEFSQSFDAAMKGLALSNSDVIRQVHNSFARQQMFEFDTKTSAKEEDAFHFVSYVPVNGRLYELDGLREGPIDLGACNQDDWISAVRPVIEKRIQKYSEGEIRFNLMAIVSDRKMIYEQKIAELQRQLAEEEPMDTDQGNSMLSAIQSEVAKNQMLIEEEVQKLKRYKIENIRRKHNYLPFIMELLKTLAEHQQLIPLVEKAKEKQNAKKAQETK
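Schedule: 30 min plus 25 min, room temperature / Material: human UCH37 within purified proteasomes / Technique: AMC fluorescence intensity at 355/460 nm / Buffer or medium: pH 7.4 Tris-HCl (50 mM) with ovalbumin, ATP-MgCl2, DTT / Controls: wells without proteasome as full block, compound-free enzyme plus substrate as uninhibited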
HNF4A DNA FP – change in binding of human HNF4 alpha to DNA; AID 1224865; activity change, % at 10 µM; HNF4a-FITC DNA binding, fluorescence polarization, 1 h; 0.3% of 360,000 active; P41235; in the data active = activity change above about 30%, passing the limit was not always enough;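 also: controls were the assay level and a saturating level of protein; the project sought stronger binding though the title names inhibitors; some compounds called inactive have numbers as strong as hits; positive values seem to mean higher polarization but the record does not say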
E coli growth – E. coli growth inhibition. Escherichia coli growth, OD600, 23 h; active compounds read low. OD600 absorbance (concentration not given with the values). 0.21% of 330,000 active. AID 1053175;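 active = OD600 absorbance below the run mean of sample wells minus 3.6 SD, in any replicate, cut at about 0.56 in these data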;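 also: stock transfer was 300 nL into about 60 µL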
Starred values were filed as active, the others as inactive; i = inactive; ? = inconclusive; / = no result given.

SMILES	Vif A3G	FGF22 binding	RanGTP-Impb inh	AF4-AF9 inh	UCH37 inh	HNF4A DNA FP	E coli growth
COc1ccc(S(=O)(=O)N2CCC(Cc3ccccc3)CC2)cc1NC(C)=O	/	i	4.0	-2.1	4.8	-0.6	0.706
O=C(CN1C2=NCCN2c2ccccc21)c1ccc2c(c1)OCO2	0.0%	/	1.7	/	0.8	-1.8	0.676
C/C(=N\NC(=O)C(O)c1ccccc1)c1ccc(Cl)s1 (stereo not given)	3.0%	i	-2.1	-0.6	/	4.2	/
COC(=O)c1cccc(S(=O)(=O)N(Cc2ccco2)Cc2cc3cc(OC)ccc3[nH]c2=O)c1	2.6%	/	-14.9	/	-8.7	1.9	0.723
COCCNC(=O)c1cc2nc(-c3ccccc3)cc(C)n2n1	25.1%	/	-0.7	-2.3	-71.2	4.8	0.65
Cc1ccc2c(c1)N(C(=O)CCC(=O)NCCCN1CCOCC1)CC(C)O2 (stereo not given)	/	i	-0.6	1.0	-0.2	0.1	0.667
CC(C)CNC(=O)c1cccc(NC(=O)CCc2ccccc2)c1	-4.0%	i	-5.0	-3.0	4.6	0.0	0.7
C=C(C)C(=O)Nc1ccc2nn(-c3ccccc3O)nc2c1	/	i	/	-1.5	/	-0.6	/
CCOC(=O)CSc1nc(N2CCOCC2)c2c(c1C#N)CC(C)(C)OC2	-41.1%	i	-3.1	0.3	-45.6	-3.7	0.643
Cc1cc(C)cc(NC(=S)Nc2ccc(Cl)c(Cl)c2)c1	6.0%	i	2.0	3.1	2.6	-1.2	0.627

4 compounds picked at random from the list so far, as already listed:
SMILES	Vif A3G	FGF22 binding	RanGTP-Impb inh	AF4-AF9 inh	UCH37 inh	HNF4A DNA FP	E coli growth
COC(=O)c1cccc(S(=O)(=O)N(Cc2ccco2)Cc2cc3cc(OC)ccc3[nH]c2=O)c1	2.6%	/	-14.9	/	-8.7	1.9	0.723
C/C(=N\NC(=O)C(O)c1ccccc1)c1ccc(Cl)s1 (stereo not given)	3.0%	i	-2.1	-0.6	/	4.2	/
O=C(CN1C2=NCCN2c2ccccc21)c1ccc2c(c1)OCO2	0.0%	/	1.7	/	0.8	-1.8	0.676
Cc1cc(C)cc(NC(=S)Nc2ccc(Cl)c(Cl)c2)c1	6.0%	i	2.0	3.1	2.6	-1.2	0.627

Next entries follow.
SMILES	Vif A3G	FGF22 binding	RanGTP-Impb inh	AF4-AF9 inh	UCH37 inh	HNF4A DNA FP	E coli growth
CC1Cc2nc(SCC(=O)N3CCCCC3)n(C)c(=O)c2S1 (stereo not given)	-5.7%	i	/	-1.9	/	2.1	/
C=CCN(CC=C)C(=O)c1ccc(OC2CCN(Cc3ccccn3)CC2)cc1	/	i	0.0	-1.0	3.9	2.7	0.667
CN(C)CCCn1c2c3ccccc3ccc2c2oc(=O)c3ccccc3c21	-4.1%	i	/	-16.0	/	3.5	/
O=C(NCCCN1CCOCC1)c1cn(-c2ccccc2)nc1-c1ccc(F)cc1	-7.9%	i	/	0.5	-0.9	-4.9	0.702
CC(C)c1cc(C(=O)NC2CCCCC2)no1	30.1%	/	2.1	/	-2.9	-5.9	0.636
COC(=O)c1ccc(NC(=O)CSc2nc3ncccc3[nH]2)cc1	?	i	-3.3	/	4.7	-0.7	0.582
COc1cccc(NC(=O)CN(C)C(=O)Cc2c(C)nc3ccccc3c2C)c1	-4.0%	i	/	-0.2	0.8	3.1	0.676
CCOC(=O)N1CCC(N(CCN(C)C)C(=S)Nc2cccc(SC)c2)CC1	/	i	-2.4	13.4	-1.0	1.9	0.662
CC(=O)c1cccc(NC(=O)c2cc3ccccn3n2)c1	2.9%	i	-5.0	-4.8	4.8	0.8	0.73
CC(C)=CCN1CCN(Cc2nc(C(C)C)cs2)CC1CCO (stereo not given)	4.5%	i	-2.1	-15.2	-0.1	-0.5	0.71
COc1ccccc1/C=N/NC(=O)NC12CC3CC(CC(C3)C1)C2	-6.9%	i	-1.8	13.7	/	-6.2	/
Cc1ccc(S(=O)(=O)N2CCC(NC(=O)c3cccc(C)c3)CC2)cc1	3.8%	i	1.5	-1.0	-0.4	1.7	0.738
O=C(CSc1nncs1)NCCCc1ccccc1	21.4%	i	-3.8	-0.8	1.4	-3.5	0.659
CCOc1ccccc1CN1CCN(CCCc2ccccc2)CC1CCO (stereo not given)	/	i	3.5	4.2	2.9	1.8	0.618
CC(C)OCC(O)CSc1ccccn1 (stereo not given)	-2.0%	/	0.6	/	-0.7	-5.5	0.742
Cc1ccc(NC(=O)CN(C)S(=O)(=O)c2ccc3c(c2)n(C)c(=O)c(=O)n3C)c(C)c1	/	i	2.2	-2.5	1.8	2.4	0.677
Cc1ccccc1NS(=O)(=O)c1ccc(OCC(=O)NCC2CCCO2)cc1 (stereo not given)	/	i	3.4	-1.2	-2.9	3.3	0.693
O=c1cc(Nc2cccc(Br)c2)[nH]c(=O)[nH]1	1.1%	i	-2.5	-2.2	4.6	1.0	0.685
COCCNC(=O)CN1C(=O)CSc2ncccc21	65.9%	i	-1.7	-4.0	4.4	2.1	0.709
CCOC(=O)C1=C(C)N=C2SC(C(=O)OC)=CC(=O)N2C1c1cccc(OC)c1 (stereo not given)	0.8%	/	0.6	/	2.9	2.8	0.685
Cc1ccc(NC(=O)CSc2ccc(-c3ccco3)nn2)cc1	-3.2%	i	4.3	-2.8	0.0	-0.9	0.669
CC(=O)N1CCN(C(=O)CCCNC(=O)c2ccc(Cl)cc2)CC1	/	i	5.6	-0.4	4.5	2.2	0.705
Cc1ccc(OCCOCCN2CCN(C)CC2)c(C(C)(C)C)c1	/	i	-0.7	1.8	0.3	4.6	0.672
CC(C)COC(=O)N1CCCCC1c1cc(C(=O)N2CCOCC2)no1 (stereo not given)	/	i	/	-1.7	/	-1.3	/
O=C(O)c1nn(CCOc2ccc(Cl)cc2Cl)c(=O)c2ccccc12	/	i	1.6	4.8	0.8	2.6	0.693
CN1CCN(c2ccccc2NC(=O)c2ccc(N3CCCC3)c([N+](=O)[O-])c2)CC1	-3.9%	i	0.7	20.8	7.1	-1.5	0.701
CC(NC=C1C(=O)OC(C)(C)OC1=O)C(=O)O (stereo not given)	/	i	-2.1	-0.9	-0.5	-0.9	0.687
Cc1ccc(S(=O)(=O)CCC(=O)OCC(=O)NCC(=O)Nc2c(C)cc(C)cc2C)cc1	6.0%	i	3.2	-0.5	1.0	3.1	0.67
Oc1ccccc1C1=NN(c2ccccc2)C(c2ccccc2)C1 (stereo not given)	/	i	-4.3	-27.2	i	1.7	0.633
CN(C)S(=O)(=O)c1cccc(C(=O)Nc2ccccc2[N+](=O)[O-])c1	/	i	3.5	2.1	2.0	0.8	0.655
O=C1C=C(O)C(n2cncn2)C(c2ccc(F)cc2)C1 (stereo not given)	7.4%	i	0.8	-1.3	-2.2	1.8	0.714
O=S1(=O)CCO[C@H]2Cc3ccccc3[C@H]2N1Cc1cccc(C(F)(F)F)c1	/	i	8.4	-1.1	1.0	-1.5	/
COc1ccc(N(C(=O)c2snc(C(N)=O)c2N)C(C(=O)NC2CCCC2)c2ccc(OC)c(OC)c2)cc1 (stereo not given)	/	i	1.8	-9.2	-23.0	-2.7	0.682
C/C(=N\Nc1c([N+](=O)[O-])c(C)nn1C)c1ccc(F)cc1F	-3.5%	i	?	-3.7	/	-6.0	/
COc1cc(C(=O)N=C2SC3CS(=O)(=O)CC3N2c2ccccc2)cc(OC)c1OC (stereo not given)	/	i	-4.3	-6.3	2.3	1.4	0.666
O=C(CN(Cc1ccc(F)cc1)C(=O)CCC(=O)Nc1ccccn1)NCc1ccc(F)cc1	/	i	0.3	-1.7	1.0	-0.3	0.691
O=C(COC(=O)CSc1ccc(Cl)cc1)Nc1ccc2[nH]c(=O)[nH]c2c1	-7.3%	i	/	0.2	3.9	-2.3	0.661
O=C1C2C3C=CC(C4CC34)C2C(=O)N1/N=C/c1ccc([N+](=O)[O-])s1 (stereo not given)	/	i	-2.9	-3.6	/	3.2	/
N#Cc1ccc(CSCC(=O)NN=C2CCCC2)cc1	1.6%	/	-2.7	0.2	0.3	2.7	0.715
Cc1ccc(C(=O)NCCCNC(=O)c2ccccn2)cc1	/	i	-3.4	-0.5	3.8	-0.5	0.702
Cc1ccccc1CN(c1ccc(C(=O)Nc2ccccc2C(=O)NCc2ccco2)cc1)S(C)(=O)=O	-4.4%	/	?	/	-3.0	1.7	0.755
COc1cc(C(=O)NC(C)c2cc(C)ccc2C)ccc1OCC(=O)N1CCOCC1 (stereo not given)	-8.9%	i	/	-0.6	-2.6	3.4	0.669
Cc1cccc(OCCCCCN2CCOCC2)c1C	/	i	1.0	0.6	6.2	2.3	0.674
CCOC(=S)SCc1cn2ccccc2n1	13.5%	i	1.4	2.1	1.8	-5.4	0.668
CCn1cc(C2C3=C(CC(C)(C)CC3=O)N(c3ccc(C)cc3)C3=C2C(=O)CC(C)(C)C3)c(C)n1	/	i	/	-5.1	-7.6	-0.9	0.708
CCOC(=O)Cc1csc(NS(=O)(=O)c2ccc(F)cc2)n1	-4.0%	/	5.2	/	-2.9	1.5	0.76
N#Cc1ccccc1Sc1ccccc1C(=O)Nc1ccc(Br)cc1	5.5%	/	-1.1	/	4.8	-0.8	0.703
Cc1ccc(N(C)C(=O)C2CCN(S(=O)(=O)c3ccc4c(c3)oc(=O)n4C)CC2)cc1	6.0%	i	-2.2	-2.6	1.6	-2.4	0.71
CS(=O)(=O)N1CCN(C(=O)Cc2cccs2)CC1	4.0%	/	-4.3	/	2.6	-1.8	0.731
CSc1nc(N)nc(C(C)C)n1	2.3%	i	2.2	2.4	1.5	-0.8	0.651

Later entries.
SMILES	Vif A3G	FGF22 binding	RanGTP-Impb inh	AF4-AF9 inh	UCH37 inh	HNF4A DNA FP	E coli growth
Cc1ccc(O)c(C(=O)c2cnc3c(c2)c(C)nn3C)c1	/	i	?	2.8	2.5	-1.8	0.677
CC(=O)Nc1ccc(C(=O)Nc2cccc(S(=O)(=O)N(C)c3ccccc3)c2)cc1	9.0%	i	/	2.3	-0.8	-1.1	0.694
Cc1noc(C)c1CSCC(=O)N(C)CC(=O)Nc1ccc(Cl)c(Cl)c1	/	i	1.2	-12.5	/	-0.5	/
CN(C)c1ccc(Nc2cc(Cl)ncn2)cc1	/	i	3.0	-0.6	4.7	1.8	0.673
CCOC(=O)C1C(=O)CC(C)(O)C(C(=O)OCC)C1c1ccc(Br)o1 (stereo not given)	7.5%	/	-4.2	/	2.8	/	0.788
COc1ccc(COc2cc(-c3cccc(OC)c3)nc3ccc(NC(C)=O)cc23)cc1	21.1%	i	-0.7	/	-7.4	3.2	0.722
COc1ccccc1N1CCN(C(=O)CCNS(=O)(=O)c2ccc3c(c2)CCC(=O)N3)CC1	?	/	1.5	/	2.3	-1.3	0.73
COc1ccc(Cl)cc1Nc1nc2ccc(C)cc2n2cnnc12	-11.8%	i	-2.7	-0.5	-125.8	21.1	0.651
COc1ccc(CCNC(=O)c2coc(=O)c(Br)c2)cc1	/	i	5.1	1.3	9.6	/	0.672
COC(=O)c1cc(NC(=O)C2COc3ccccc3O2)cc(C(=O)OC)c1 (stereo not given)	8.2%	/	-3.6	/	-2.6	2.6	0.602
COc1cccc(CC(=O)OCC(=O)NC2(C#N)CCCCC2)c1	-1.9%	i	-2.3	-11.3	2.6	2.7	0.653
Cc1ccc(SCC(=O)NCCN2C(=O)CSC2=O)cc1C	3.8%	/	4.2	/	-0.9	1.7	0.643
COc1ccc([C@H]2[C@@H](C#N)[C@H](C#N)N3CCCN23)cc1	5.6%	/	-0.4	/	3.7	-1.7	0.668
COC(=O)[C@]12CCCCC=C1N(Cc1ccco1)C(=O)[C@H](CC(=O)NCc1cccc3ccccc13)C2	/	i	/	-1.1	/	2.7	/
O=C(Nc1ccc(OCC(=O)N2CCOCC2)cc1)c1cccc(Cl)c1	7.2%	i	-0.4	-12.0	6.1	-0.4	0.688
CC(=O)c1ccc(N2CCN(C(=O)c3cc(-c4cccnc4)nc4ccc(Br)cc34)CC2)cc1	-0.7%	i	4.4	-5.3	9.7	-2.8	0.684

The list is partial; the hit share may differ from the screen's.
